Compound activity as filed in PubChem.
Mtb MenB inh: inhibitors of Mycobacterium tuberculosis MenB enzyme; P9WNP5; MenB enzyme assay, absorbance read-out; some hits fall short of the stated cut; inhibition, %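 (about 12 µg/mL by stock and volumes)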; 100,000 tested, 0.43% active;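 active = mean of two replicates above 30%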;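 also: 0% = no compound and 100% = wells with inactive enzyme; the first replicate is given; strong numbers were not always called active; inactives centre near -10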
Target sequence (P9WNP5 whole entry, looked up): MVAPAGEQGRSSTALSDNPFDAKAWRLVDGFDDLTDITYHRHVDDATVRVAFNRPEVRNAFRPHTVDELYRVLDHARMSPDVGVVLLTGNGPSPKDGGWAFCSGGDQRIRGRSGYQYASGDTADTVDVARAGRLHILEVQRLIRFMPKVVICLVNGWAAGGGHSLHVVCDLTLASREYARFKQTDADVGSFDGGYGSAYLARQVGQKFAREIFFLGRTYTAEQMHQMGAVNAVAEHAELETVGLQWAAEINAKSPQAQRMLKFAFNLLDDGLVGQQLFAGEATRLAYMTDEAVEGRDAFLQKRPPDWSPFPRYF
PV pol inh: poliovirus RNA polymerase inhibition; P03300; poliovirus polymerase elongation, fluorescence polarization; hits give low values; % elongation, % (compound at 16.7 µg/mL); 150,000 tested, 0.66% active; in the data active = % elongation below about 90%; also: some results filed as inactive read as strong as hits
Target sequence (P03300 1749-2209 limits assumed): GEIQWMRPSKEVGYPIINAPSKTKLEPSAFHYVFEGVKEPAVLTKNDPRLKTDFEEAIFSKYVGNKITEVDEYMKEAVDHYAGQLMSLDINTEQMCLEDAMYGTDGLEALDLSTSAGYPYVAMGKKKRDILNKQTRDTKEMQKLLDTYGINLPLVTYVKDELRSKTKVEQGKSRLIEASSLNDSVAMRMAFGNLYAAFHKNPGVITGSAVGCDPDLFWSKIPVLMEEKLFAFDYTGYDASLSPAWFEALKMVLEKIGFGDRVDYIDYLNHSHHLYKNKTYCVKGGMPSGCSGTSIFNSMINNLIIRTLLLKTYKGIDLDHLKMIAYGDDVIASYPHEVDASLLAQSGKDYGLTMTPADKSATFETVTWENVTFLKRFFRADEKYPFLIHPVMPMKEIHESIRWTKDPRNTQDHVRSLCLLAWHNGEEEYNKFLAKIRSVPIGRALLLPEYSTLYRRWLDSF
Mtb MbtI inh: blocks the Mycobacterium tuberculosis siderophore enzyme MbtI | inhibition, %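 (about 17 µg/mL by stock and volumes)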 | purified MbtI enzyme, fluorescence intensity read-out | P9WFX0 | 100,000 tested, 0.89% active;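 active = above 50% in both replicates, above 80% if mildly self-fluorescent; inactive = the rest, strongly fluorescent compounds included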;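 also: 0% = mean of negative and 100% = mean of positive controls; one replicate is shown; some compounds called inactive have numbers as strong as hits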
PV pol inh intensity: also measured in PV pol inh; calls as there; % elongation; measured here: total intensity read-out; formula for this scale not given here;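 total fluorescence in place of polarization; lower means less elongation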
Numbers without * were called inactive; / = no result given; & = joins results of further samples.

canonical_smiles	Mtb MbtI inh	Mtb MenB inh	PV pol inh	PV pol inh intensity
CC1Oc2ccccc2N(CC(=O)NC2CC2)C1=O (stereo unspecified)	-11	-18	103	103
COC(CN(C)C(=O)c1cc2c(C)nc3ccccc3c2o1)OC	-3	-11	101	105
c1ccc(COc2ccc(NCCc3ccncc3)cc2)cc1	/	-22	109	112
CCN(CC(=O)NCc1cccs1)C(=O)c1cn(-c2ccccc2)nc1-c1cccs1	2	3	108	96
CC(OC(=O)/C=C/c1cccs1)C(=O)Nc1cccc(C(F)(F)F)c1 (stereo unspecified)	-4	/	102	102
CC(C)Sc1nnc2sc3ccccc3n12	6	/	102	101
COCc1cc(C)nc2sc3c(nnn4c5ccccc5nc34)c12	/	-14	101	114
O=C(NC1Cc2ccccc2C1)c1ccc(Oc2cc(Cl)cc(Cl)c2)o1	-12	-4	102	111
Cc1ccc(C(=O)N(C)C2CCN(C)CC2)cc1C	-14	-5	104	109
Cc1oc2ncn(CC(C)C)c(=O)c2c1C(=O)N1CCCC1	-8	-32	107	99
Nc1nc(CCC(=O)OCc2c(F)cccc2Cl)nc(Nc2ccccc2)n1	0	-45	102	96
O=C1CCC/C1=C\c1ccccc1	17	-20	99	96
COc1ccccc1C1C=CCC1 (stereo unspecified)	28	/	101	97
CCN(CC)S(=O)(=O)c1ccc2[nH]c(=O)cc(C(=O)N3CCCSc4ccccc43)c2c1	-1	-7	99	96
CC(=O)N(/C=C1\Sc2ccccc2C1=O)c1ccccc1	28	-232	121	129
CCCn1c(N)c(C(=O)COC(=O)c2cccc(NC(=O)OC(C)(C)C)c2)c(=O)[nH]c1=O	11	-16	107	107
CN1C(=O)/C(=C\c2ccccc2)Sc2ccc(C(=O)N3CCN(c4ccccn4)CC3)cc21	2	-2	101	101
FC(F)(F)c1ccc(NC2=NCCC2)cc1	1	-4	105	109
CCCNC(=O)Cn1cnc2sc(C(=O)N3CCC4(CC3)OCCO4)c(C)c2c1=O	8	-13	100	102
COC(=O)c1ccccc1NC(=O)CCCN1C(=O)CSc2ncccc21	-1	-15	106	101
c1ccc(OCc2ccc(CCCN3CCOCC3)cc2)cc1	1	-6	105	107
O=C(NCCSc1c(-c2ccc(Br)cc2)[nH]c2ccccc12)c1ccncc1	15	-18	99	100
CC1NC(=S)N(C2CCCCC2)C1=O (stereo unspecified)	11	3	103	104
CCCCS(=O)(=O)N1CCN(c2cc(Cl)ccc2C)CC1	-11	-42	105	103
COC(=O)c1c(N)n(-c2ccc(F)c(F)c2)c2nc3ccccc3nc12	33	1	97	103
O=C(NC1CCS(=O)(=O)C1)C(c1ccccc1)c1ccccc1 (stereo unspecified)	-18	-8	104	104
O=C(/C=C/c1ccc(S(=O)(=O)N2CCCCCC2)cc1)N1CCN(C2CCS(=O)(=O)C2)CC1 (stereo unspecified)	18	9	99	101
CN(C)S(=O)(=O)c1cccc(C(=O)NCC2COc3ccccc3O2)c1 (stereo unspecified)	0	-18	103	105
CC(C)(C)c1ccc(/C(N)=N/O)cc1	-8	-6	102	105
O=C(Nc1ccccc1)Nc1nncs1	4	-54	104	101

Arranged by number of heavy atoms (lowest first): part of the list above.
canonical_smiles	Mtb MbtI inh	Mtb MenB inh	PV pol inh	PV pol inh intensity
O=C(Nc1ccccc1)Nc1nncs1	4	-54	104	101
CCCCS(=O)(=O)N1CCN(c2cc(Cl)ccc2C)CC1	-11	-42	105	103
O=C(NC1CCS(=O)(=O)C1)C(c1ccccc1)c1ccccc1 (stereo unspecified)	-18	-8	104	104
O=C(NCCSc1c(-c2ccc(Br)cc2)[nH]c2ccccc12)c1ccncc1	15	-18	99	100

Following part.
canonical_smiles	Mtb MbtI inh	Mtb MenB inh	PV pol inh	PV pol inh intensity
COc1ccccc1CNc1ccccc1C(=O)N1CCOCC1	-7	/	101	96
CCC1(CC)Cc2ccccc2C(CC(=O)N2CCOCC2)=N1	/	-25	99	104
Nc1c(C(=O)OC2CCCCC2)c2nc3ccccc3nc2n1Cc1ccco1	102	-36	/	/
COc1ccc(C2=NOC(C(=O)N(C)Cc3ccccc3)C2)cc1 (stereo unspecified)	3	-3	101	104
CC1Cc2ccccc2N1C(=O)CC(C#N)(C#N)CC(=O)N1c2ccccc2CC1C (stereo unspecified)	-8	-60	100	102
CC(C)(C)c1ccc(C2CC(=O)c3cnc(N)nc3C2)cc1 (stereo unspecified)	/	0	99	93
Cn1cc(/C=C2\SC(=O)NC2=S)c2ccccc21	37	-37	95	102
COc1ccc(NC(=O)CCc2ccc(C)o2)cc1	10	-33	101	99
COc1ccccc1/C=N/n1c(SCC(=O)O)nnc1C1CCCCC1	-15	-13	99	106
CCN(CC)S(=O)(=O)c1ccc(/C=C/C(=O)Nc2cccc(C)c2)cc1	-7	/	103	105
CC(=O)OCC12COC(C)C(C(C)=CC1C)C2C (stereo unspecified)	0	-25	101	101
O=c1c2ccccc2[nH]c(=S)n1-c1ncn[nH]1	6	4	101	94
CC(CC(=O)N(C)Cc1ccccc1)S(=O)(=O)c1ccc2c(c1)SCC(=O)N2 (stereo unspecified)	-4	-27	106	112
CCN1CCSc2ccc(C(=O)NC3CC3)cc21	-48	-10	103	105
Cc1ccc(NC(=O)c2cnc(SCC(=O)NCc3ccc4c(c3)OCO4)n(C)c2=O)cc1	7	1	104	104
N#C/C(=C\c1ccc(-c2ccc(S(N)(=O)=O)cc2)o1)S(=O)(=O)c1ccccc1	-7	-169	103	102
CCCc1nn(C)c2c(=O)[nH]c(-c3cc(S(=O)(=O)N4CCN(C)CC4)ccc3OCC)nc12	0&-1	-19&-1	103&98	102&101
Cc1c(O)ccc(C(=O)CN2CCN(Cc3ccccc3)CC2)c1O	5	-19	101	111
Cc1cc2c(=O)[nH]nc(N)c2c(=O)[nH]1	0	-16	104	103
CC(C)CCN(Cc1ccco1)S(=O)(=O)c1ccc(-c2ccc(=O)[nH]n2)s1	-21	-5	99	103
COC(=O)[C@H]1[C@H]2C[C@@H]3c4[nH]c5cc(OC)ccc5c4CCN3C[C@H]2C[C@@H](OC(=O)c2cc(OC)c(OC)c(OC)c2)[C@@H]1OC	-7&-16	2&-10	103&102	104&105
COc1ccc(/C=C/C(=O)Nc2ccc(N3CCOCC3)cc2)cc1OC	3	14	101	100
O=C(c1cccs1)N1CCC(n2nc(-c3ccccc3)oc2=O)CC1	-14	14	100	102
CCn1c(C(=O)N2CCC(C(=O)N3CCN(c4ccccc4)CC3)CC2)cc2sccc21	17	2	99	103
CCn1c(=N)n(CC(=O)c2cccs2)c2ccccc21	/	-10	104	107
COC(=O)c1ccc(=O)oc1	/	-11	101	103
COc1ccc(-c2[nH]ncc2C=C(C#N)C#N)cc1	-16	-28	103	97
O=C(O)CNC(=S)N(Cc1ccccc1)Cc1cccnc1	4	12	102	104
CC1=CC(=C(C#N)C#N)C=C(c2ccccc2)N1Cc1ccco1	16	-29	100	101
CSC(=C(C#N)C#N)N1CCCC1	28	-15	104	111
O=C(NC1CCNCC1)C1CCCC1	4	17	101	102
CCNCc1ccc2c(c1)OCO2	-14	-7	105	111
CC1CCCC(C)N1C(=O)CSCc1cccc(S(=O)(=O)N2CCOCC2)c1 (stereo unspecified)	-3	3	101	110
OCCNC(=S)c1ccccc1	-10	-4	104	108
Nc1nc(CSc2nc3ccccc3o2)cs1	16	4	/	/
Clc1nc(N2CCCc3ccccc32)nc(N2CCCc3ccccc32)n1	11	-7	101	103
FC(F)(F)c1nc2ccccc2n1-c1cc(-c2ccccc2)[nH]n1	-3	/	103	107
O=C(O)COC12CC3CC(CC(C3)C1)C2	0	13	101	103
CC(C)(C)OC(=O)N1CCCC1C(=O)Oc1ccc2c(c1)oc(=O)c1ccccc12 (stereo unspecified)	10	17	98	102
c1ccc2[nH]c(-c3cscn3)nc2c1	-9&-25	-6&4	101&101	101&101
CCCN1CCC(N2CCN(CCO)CC2)CC1	-10	-30	100	101
Nc1c(NCCN2CCCC2)c2ccccc2oc1=O	15	-11	100	104
CN1C(=O)C(CC(=O)Nc2ccc3c(c2)Cc2ccccc2-3)N(C)C1=O (stereo unspecified)	-17	-19	102	102
O=C(COC(=O)c1ccco1)Nc1ccccc1	-9	/	101	103
CN(C(=O)/C=C/c1ccco1)c1ccccc1C(=O)O	5	-22	99	100
Cc1ccc(-n2c3nc4ccccc4nc3c3c(=N)oc(C)nc32)cc1	8	-14	104	114
O=C(CSc1ncnc2sc3c(c12)CCCC3)c1cccs1	15	-38	103	91
CCN(C(=O)Cn1c(=O)n2nc(CCn3nc(C)cc3C)nc2c2ccccc21)c1cccc(C)c1	-5	-7	101	100
Cc1ccc2[nH]cc(NC(=O)NCCc3ccccc3)c(=O)c2c1	36	-6	102	99
O=C(c1cccs1)c1cn(Cc2ccccc2Cl)c2ccccc12	11	-38	101	99

Later entries.
canonical_smiles	Mtb MbtI inh	Mtb MenB inh	PV pol inh	PV pol inh intensity
Cn1c(-c2ccccc2)cnc1NCc1ccccc1	-75	-14	100	95
CC(C)=CCC/C(C)=N\n1cnnc1	-18	/	101	105
Clc1ccccc1-c1nnc2sc(Nc3ccccc3)nn12	41	4	99	99
COC(CNC(=O)c1csc2c1CCCC2)OC	-15	-7	104	106
CN(C)C(CC(=O)Nc1ccc(Cl)c(Cl)c1)C(=O)O (stereo unspecified)	-3	-30	99	102
C=CCNC(=O)CCN1N=C(c2ccc(C)cc2)CCC1=O	-1	5	102	105
C/C(=N\OCC(=O)NC12CC3CC(CC(C3)C1)C2)c1cc2ccccc2o1	8	-31	102	105
COc1cccc(C2NC(CC(C)C)(C(=O)O)C3C(=O)N(c4ccc(F)cc4)C(=O)C23)c1 (stereo unspecified)	-8	-19	102	104
N#Cc1cnc(SCc2ccccc2)nc1N	-235	2	104	111
CCN(CC)C(=O)c1sc(NC(C)=O)c(C(=O)OC)c1C	4	-6	102	105
C=CCNC(=S)C(=O)Nc1ccccc1	/	-42	81*	82*
COc1ccc(NC(=O)CC2C(=O)NCCN2C(=O)c2ccc(C(C)(C)C)cc2)cc1 (stereo unspecified)	0	6	100	92
O=C(COC(=O)C1Cc2ccccc2CN1C(=O)c1ccco1)Nc1ccc(F)cc1 (stereo unspecified)	-2	-13	100	104
COc1ccccc1-c1nnn(CC#N)n1	8	-9	99	99
CC(C)(Oc1ccc(C2CC2(Cl)Cl)cc1)C(=O)O (stereo unspecified)	-3	10	100	104
CNC(=O)CCCc1nnc2n(C)c(=O)c3sccc3n12	-4	-26	100	98
O=C(NC1CCCCC1)NC12CC3CC(CC(C3)C1)C2	12	-21	102	107
N#Cc1ccc(OCC(O)CNCCC2=CCCCC2)cc1 (stereo unspecified)	-3	10	99	108
O=C1CC/C(=C\C(=S)N2CCOCC2)N1	35	-17	105	93
COc1ccccc1NC(=O)C1=C(C)NC(=O)NC1c1ccco1 (stereo unspecified)	0	2	127	131
COc1ccc(CCNC(=O)C2CCCN2S(=O)(=O)c2cccc3nsnc23)cc1OC (stereo unspecified)	2	-1	100	101
S=C(Nc1cccc2ccccc12)NN1CCOCC1	-21	-3	100	101
CN1/C(=C\C(=O)CSc2nc3ccccc3o2)C(C)(C)c2ccccc21	-5	-15	103	99
O=C(CC1COc2ccccc2O1)NCCc1ccccc1 (stereo unspecified)	2	-27	101	103
Cc1cccc(N2C(=O)CSC23C(=O)N(CN2CCOCC2)c2ccccc23)c1 (stereo unspecified)	-3	-15	103	101
Cc1nc2scc(C)n2c(=O)c1S(=O)(=O)NC1CCCCC1	60	13	101	104
CC(C)c1ccccc1N=Cc1ccc[nH]1	6	/	102	98
O=C(NCCO)c1ccc(C(=O)NCCO)cc1	/	-21	108	102

Compounds as they come. About 2% of those tested had a hit in this group.
